Assay outcomes deposited in PubChem by National Center for Advancing Translational Sciences (NCATS).
RE007 growth inh = qHTS Assay for Inhibitors of the HIV-1 protein Vpr. Potency, µM (titrated, usually from 92.2 µM), without a hit: at the highest dose activity change, negative = less growth. S. pombe RE007 Vpr strain, BacTiter-Glo ATP luminescence, 24 h; control for the full effect not named in the record. 360,000 tested, 0.21% active. AID 651644, 2012; active = well fitted falling curve with a large enough effect; inconclusive = small, poorly fitted or top-dose-only effect; inactive = no such curve, though single readings can be large or run the other way;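 note: % is set by controls: 0 for no effect and ±100 for the full control effect; nearly all actives have a fitted effect of over 50% in size; the assay follows cell death caused by Vpr and the record does not say whether a fall means rescue or toxicity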
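Fission yeast RE007 carrying one integrated HIV-1 vpr copy, seeded at OD 0.01 in PMG+AL medium with 23 nL pinned compound. Grown 24 h at 30 degrees; viability read by BacTiter-Glo luminescence after 5 min.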
MARV entry inh = qHTS for inhibitors of binding or entry into cells for Marburg Virus; Marburg virus pseudotyped entry inhibition, cell reporter; control for the full effect not named in the record; about a third of the inactives were read at about 46 µM; Potency, µM (titrated, usually from 37.8 µM), for inactives: top-dose activity change, negative = inhibition, actives largely listed as inhibitors; 300,000 tested, 1.8% active; AID 540276, 2011; active = well fitted inhibition curve with a large enough effect; inconclusive = small, poorly fitted or top-dose-only effect, or effect the other way; inactive = flat fitted curve, though single readings scatter; tested in HEK293 cells; about a fifth of its hits are not listed in these tables; note: % is set by controls: 0 for no effect and ±100 for the full control effect; luciferase read-out
SARS PLpro yeast = qHTS of Yeast-based Assay for SARS-CoV PLP | S. cerevisiae expressing SARS-CoV PLpro, growth rescue; control for the full effect not named in the record | Potency, µM (top dose mostly 32.9 µM), for the others: at the top dose activity, positive = growth rescue | 330,000 tested, 0.19% active | AID 485353, 2010; active means well fitted rising curve with a large enough effect; inconclusive means small, poorly fitted or top-dose-only effect; inactive means no such curve, though single readings can be large or run the other way; note: 0% is about no effect; nearly all actives have a fitted effect of over 55% in size; growth read by luminescence after 48 h
StopGo reporter = High Throughput Screening for Foot and Mouth Disease Virus Antivirals | human cells with a luciferase reporter of 2A StopGo recoding; control for the full effect not named in the record | Potency, µM (top dose mostly 57.9 µM), for the others: top-dose signal change, negative = less light | 410,000 tested, 1.2% active; active = well fitted falling curve with a large enough effect; inconclusive = small, poorly fitted or top-dose-only effect; inactive = no such curve, though single readings can be large or run the other way; tested in HEK293T cells; note: % is set by controls: 0 for no effect and ±100 for the full control effect; nearly all actives have a fitted effect of over 45% in size; luciferase light after 4 h
NS1 inh = qHTS Assay for Inhibitors of Influenza NS1 Protein Function; S. cerevisiae slowed by influenza A NS1, growth recovery by OD600; 270,000 tested, 0.4% active; AID 2326, 2010; Potency, µM (highest dose often 46.1 µM), inactives show top-dose activity, positive = more growth; active means well fitted rising curve with a large enough effect; inconclusive means small, poorly fitted or top-dose-only effect; inactive means no such curve, though single readings can be large or run the other way; note: nearly all actives have a fitted effect of over 50% in size
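S. cerevisiae expressing influenza A NS1, grown in glucose, washed, then diluted 1:100 into pH 6.0 -URA galactose medium with 23 nl compound. Growth recovery read as OD600; NS1-free strain serves as control.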
Cruzain noTriton = qHTS Assay for Promiscuous and Specific Inhibitors of Cruzain (without detergent); Cruzipain (Trypanosoma cruzi), P25779; purified cruzain, Z-FR-AMC fluorescence, no detergent; Potency, µM, inactives show max response, negative = inhibition, most hits filed as inhibitors; 200,000 tested, 2.3% active; AID 1476, 2009;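 note: plate controls were enzyme without inhibitor for no effect and buffer without enzyme for full effect; nearly all actives have a fitted effect of over 40% in size; top concentration of the series not given in the record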
Target sequence (P25779 123-467 limits assumed): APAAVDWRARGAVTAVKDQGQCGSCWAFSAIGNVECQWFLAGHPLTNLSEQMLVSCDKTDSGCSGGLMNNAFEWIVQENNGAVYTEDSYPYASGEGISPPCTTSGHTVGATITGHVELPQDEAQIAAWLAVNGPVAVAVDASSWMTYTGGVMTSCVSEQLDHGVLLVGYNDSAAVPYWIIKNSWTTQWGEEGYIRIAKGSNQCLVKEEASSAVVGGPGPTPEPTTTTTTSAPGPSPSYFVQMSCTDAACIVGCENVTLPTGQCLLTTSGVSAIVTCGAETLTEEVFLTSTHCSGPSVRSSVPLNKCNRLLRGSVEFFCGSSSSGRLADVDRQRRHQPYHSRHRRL
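Detergent-free condition (0.00005% Triton X-100) in acetate buffer pH 5.5 with DTT. 1.5 nM enzyme and compound were pre-mixed 15 min, then 2 uM Z-FR-AMC substrate added; reaction progress from fluorescence change between first and third reads (60 s).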
Lassa entry inh = qHTS for Inhibitors of binding or entry into cells for Lassa Virus. Lassa virus pseudotype entry inhibition, cell reporter; control for the full effect not named in the record. Potency, µM (highest dose often 37.9 µM), for the others: top-dose activity change, negative = inhibition, most hits filed as inhibitors. 300,000 tested, 1.2% active; active means well fitted inhibition curve with a large enough effect; inconclusive means small, poorly fitted or top-dose-only effect, or effect the other way; inactive means flat fitted curve, though single readings scatter; tested in HEK293 cells; note: % is set by controls: 0 for no effect and ±100 for the full control effect; nearly all actives have a fitted effect of over 50% in size; luciferase read-out
Cruzain inh Det = qHTS Assay for Promiscuous and Specific Inhibitors of Cruzain (with detergent); 200,000 tested, 0.43% active; Potency, µM, for the others: max response, negative = inhibition, usual class: inhibitors; purified cruzain, Z-FR-AMC fluorescence, 0.01% Triton; Cruzipain (Trypanosoma cruzi), P25779;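 note: plate controls were neutral wells for no effect and buffer without enzyme for full effect; nearly all actives have a fitted effect of over 40% in size; top concentration of the series not given in the record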
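Detergent-containing arm of a paired screen for aggregation-based inhibition: 0.01% Triton X-100 present. Cruzain at 1.5 nM cleaved 2 uM Z-FR-AMC at pH 5.5 with 5 mM DTT; AMC fluorescence gain over 60 s measured activity.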
Starred values were filed as active, the others as inactive; ? = inconclusive; nt = no result given; & = joins results of further samples; [ ] = remark or other dose. Unless noted, calls come from the whole dose curve; as a rule, active = well fitted curve in the direction sought with a large enough effect; inconclusive = small, poorly fitted or top-dose-only effect, or another doubt; inactive = no such curve, though single readings can be large; an effect the other way counts as inactive or inconclusive. Potency is the fitted concentration of half-maximal effect.

SMILES	RE007 growth inh	MARV entry inh	SARS PLpro yeast	StopGo reporter	NS1 inh	Cruzain noTriton	Lassa entry inh	Cruzain inh Det
CCOc1ccc(-c2cc(CCCC(=O)NCCc3ccc(OCC)c(OCC)c3)no2)cc1	nt	?	nt	-10%	nt	3%	?	-0.7%
CCOc1ccc(OCC)c(NC(=O)c2ccc(CNc3c(N4CCCC4)c(=O)c3=O)cc2)c1	8%	9%[46.1 µM]	0%	-5%	-2%	nt	?	nt
CCN(CC)C(=O)CN(c1ccc(Cl)cc1)S(=O)(=O)c1ccccc1	-3%	3%	-2%	10%	-3%	2%	1%	-0.5%
c1ccc(OCc2nn3c(-c4n[nH]c5c4CCC5)nnc3s2)cc1	14%	8%[46.1 µM]	3%	0%	14%	-6%	-3%	-1.4%
CC(=O)c1ccc(N(C(=O)c2csnn2)C(C(=O)NC(C)(C)C)c2cccs2)cc1 (stereo not drawn)	0%	nt	-2%	-21%	-5%	nt	nt	nt
O=c1cc(-c2ccccc2)nc(SCc2ccccc2)[nH]1	17%	14%[46.1 µM]	-3%	-4%	3%	-22%	-1%	2.0%
CCCCN(C(=O)C1CSC2(C)CCC(=O)N12)c1c(N)n(CC(C)C)c(=O)[nH]c1=O (stereo not drawn)	7%	24%	5%	1%	nt	nt	3%	nt
C/C(=N\NC(=O)c1nnn(-c2nonc2N)c1-c1cccs1)c1ccncc1	-9%	nt	1%	-20%	12%	nt	nt	nt
CSc1c(SCc2ccccc2)cnn(Cc2ccccc2)c1=O	9%	-29%	11%	-5%	-38%	4%	0%	-2.2%
Cc1cc(N/C=C\c2nnnn2-c2ccc(F)cc2)no1	3%	?	-3%	52%[activator]	2%	-17%	-17%	-0.2%
CCOC(=O)c1ccccc1NC(=O)Nc1cc2c(cc1N1CCCCC1)n(C)c(=O)n2C	nt	-21%[46.1 µM]	nt	3%	nt	-4%	15%[46.1 µM]	1.1%
CN(C)Cc1c(-c2ccc(Cl)cc2)nc2ccccn12	4%	?	-1%	18%	3%	nt	9%[46.1 µM]	nt
c1ccc(Cn2nnnc2C(c2cccnc2)N2CCN(c3ccccc3)CC2)cc1 (stereo not drawn)	-3%	-38%&-38%	-12%	nt	-154%	12%	?	-0.6%
O=C1[C@H]2[C@@H](c3ccc(F)cc3)N3C(=O)N(c4ccc(Br)cc4)C(=O)[C@@]3(Cc3ccc(Cl)cc3)[C@H]2C(=O)N1C1CCCCC1	2%	nt	-4%	-17%	?	nt	nt	nt
Cc1ccc(C(=O)C2=C(O)C(=O)N(CC3CCCO3)C2c2ccccc2F)o1 (stereo not drawn)	6%	21%[46.1 µM]	0%	4%	4%	nt	13%	nt
O=C(Nc1ccc(Cc2ccncc2)cc1)C1CCC(N2C(=O)C3C4C=CC(C5CC45)C3C2=O)CC1 (stereo not drawn)	-9%	?	-13%	14µM*	-4%	-5%	?	2.2%
O=C(C1CCC(CNS(=O)(=O)c2ccc(Br)s2)CC1)N1CCN(c2ccccc2Cl)CC1 (stereo not drawn)	nt	-20%[46.1 µM]	nt	?	nt	2%	-2%[46.1 µM]	-4.3%
CC1CCCCC1NC(=O)COC(=O)c1cc(=O)c2ccccc2o1 (stereo not drawn)	1%	-15%[46.1 µM]	0%	3%	nt	nt	7%	nt
CC(C)(C)OC(=O)N1CCC[C@H]1c1nnc(SCc2cccc(Cl)c2)o1	-16%	?	0%	-9%	-1%	nt	-21%	nt
O=C(/C=C/c1ccco1)Oc1ccc(C(=S)N2CCOCC2)cc1	31%	-6%[46.1 µM]	9%	-6%	nt	nt	-5%	nt
O=C(Nc1nnc(C(F)(F)F)s1)C1COc2ccccc2O1 (stereo not drawn)	?	?	-44%	-21%	-128%	8%	?	-0.1%
O=C(Cn1c(=O)n(CCCS(=O)(=O)C2CCCCC2)c(=O)c2ccccc21)Nc1ccccc1F	nt	10%[46.1 µM]	nt	-6%	nt	-5%	-7%[46.1 µM]	-1.5%
Cn1nc(-c2ccccc2)c(N2CCCCC2)cc1=O	0%	nt	0%	17%	4%	nt	nt	nt
O=C(CN(Cc1ccccc1)S(=O)(=O)c1ccc(F)cc1)NCc1ccccn1	-19%	9%	0%	5%	0%	nt	1%	nt
Cc1cc(C(=O)COc2ccc([N+](=O)[O-])cc2)c(C)n1C1CC1	?	16%[46.1 µM]	0%	-1%	2%	nt	16%	nt
CCC(NC(=O)Nc1ncccc1C)(C(F)(F)F)C(F)(F)F	10%	-14%	0%	-24%	-12%	-18%	0%	0.5%
Cc1ccc(C(=O)Nc2ccccc2C(=O)N2CCOCC2)cc1[N+](=O)[O-]	39%	31%	12%	23%	0%	-2%	-2%	-1.3%
CCOC(=O)C1C(C(=O)OCC)C1(c1ccccc1)c1ccccc1 (stereo not drawn)	33%	-18%	-33%	0%	-14%	-2%	?	-7.1%
Cc1nc2ccccc2nc1OCC(=O)N1CCN(c2ccccc2)CC1	-4%	-3%	3%	-19%	-3%	-8%	4%	4.8%
COc1ccccc1CNC(=O)[C@@H]1CCCN1C(=O)[C@@H]1Cc2ccccc2CN1C(=O)OC(C)(C)C	-3%	-17%[46.1 µM]	3%	-11%	-4%	nt	-4%[46.1 µM]	nt
C[C@@H]1NC(=O)[C@H](CCC(=O)O)NC(=O)c2cc([N+](=O)[O-])cc(F)c2NCCC[C@@H](C(N)=O)NC1=O	-17%	40%	4%	8%	4%	5%	12%	-6.2%
O=C(COc1ccc(Cl)cc1Cl)NNC(=O)c1cccnc1	-22%	6%[46.1 µM]	1%	29%	4%	nt	10%[46.1 µM]	nt
CCc1cccc(CC)c1NC(=O)/C(C#N)=C/c1ccccc1C(F)(F)F	nt	?	-81%	25µM*	0%	14%	?	-5.3%
COCCOc1ccc(C(F)(F)F)cc1NC(=O)c1ccc(C(F)(F)F)cc1	-7%	?	21%	-17%	11%	10%	0%	-8.0%
CN(C)c1nc(N)nc(CSc2nnnn2-c2ccc(C(=O)O)cc2)n1	-1%	19%	8%	-15%	-9%	-11%	2%	5.7%
O=C(Nc1ccc(F)cc1Cl)n1ncc2cc(Cl)ccc21	nt	2%[46.1 µM]	nt	30%[activator]	nt	-4%	-10%[46.1 µM]	-8.9%
Cc1occc1C(=O)Nc1cccc([N+](=O)[O-])c1	nt	13%	-6%	7%	-13%	-6%	5%	-3.5%
Fc1ccc(-c2nc3n(n2)Cc2ccccc2-3)cc1	?	?	-13%	-59%	-10%	0%	13µM*	-7.0%
CCOc1ccc(-c2nnc(SCC(=O)NCc3ccccc3Cl)o2)cc1	nt	1%[46.1 µM]	nt	-11%	nt	?	?	?
O=C(CSc1ccccn1)Nc1nncs1	14%	2%	-5%	3%	1%	-1%	-4%	0.3%
CCC(C(=O)N1CCN(c2ncccn2)CC1)c1ccccc1 (stereo not drawn)	-6%	nt	-4%	-6%	2%	nt	nt	nt
N#Cc1ccccc1S(=O)(=O)N1CCN(c2cnccn2)CC1	-14%	3%[46.1 µM]	0%	-11%	3%	nt	12%[46.1 µM]	nt
O=C(CCCNS(=O)(=O)c1cccs1)N1CCN(c2ccc(F)cc2)CC1	20%	-22%	-5%	-15%	-12%	13%	2%	-2.5%
CC(C)c1ccc(/C=C2\C(=O)N(CCN3CCOCC3)C(=S)N2C)cc1	-13%	?	0%	?	nt	nt	?	nt
O=C(NNC(=O)c1cccnc1)Nc1cccc(Cl)c1Cl	-10%	0%	7%	11%	11%	-1%	?	-1.0%
COc1ccc(Cn2c(=O)c3ccccc3n3c(-c4cccc(OC)c4OC)nnc23)cc1	nt	2%[46.1 µM]	nt	-15%	nt	-4%	-2%[46.1 µM]	-2.8%
O=C(Nc1ccccc1)N1CCN(c2nc(-c3ccccc3)ns2)CC1	38%	3%	-3%	?	-6%	nt	5%	nt
O=C(Cc1c[nH]c2ccccc12)N/N=C/c1ccccc1O	14%	nt	0%	79%[activator]	2%	nt	nt	nt
CCc1nc2ccccc2n(CCOCCOCCn2c(=O)c(CC)nc3ccccc32)c1=O	0%	16%&16%[46.1 µM]	12%	?	-7%	?	2%	0.9%
CC(C)C(=O)Nc1nc2c(ncn2C2CC(O)C(CO)O2)c(=O)[nH]1 (stereo not drawn)	2%	nt	-1%	-17%	8%	4%	nt	0.6%
COc1ccccc1N=Nc1nc(-c2ccccc2)c(-c2ccccc2)[nH]1	1%	?	1%	-3%	-8%	-23%	?	-5.4%
CN(c1ccccc1)S(=O)(=O)c1ccc(C(=O)NCC2CCCO2)cc1 (stereo not drawn)	-7%	8%	-4%	4%	-5%	-1%	?	-1.5%
CCC(CC)C(=O)Oc1c(C(=O)N(C)C)cccc1-c1ccccc1	-9%	?	nt	-19%	nt	nt	-8%[46.1 µM]	nt
Cn1c(=O)oc2cc(S(=O)(=O)N3CCC(N4CCCCC4)CC3)ccc21	-3%	nt	2%	0%	-1%	nt	nt	nt
NC(=S)N/N=C/c1coc2ccc(Cl)cc2c1=O	-9%	?	0%	-5%	-3%	nt	8%	nt
C/C(=N\NC(=S)Nc1cccc(C)c1)c1cccc(N)c1	-2%	0%	9%	39%[activator]	18%	?	-11%	-3.8%
CCOC(=O)c1ccc(-c2ccc(/C=C(\C#N)C(=O)NCc3cccs3)o2)cc1	2%	?	3%	-18%	-18%	-1%	-9%	-0.3%
Cc1ccc(Cn2c(C)c3cnn(CC(=O)O)c(=O)c3c2C)cc1	nt	8%[46.1 µM]	nt	-14%	nt	-4%	4%[46.1 µM]	-5.3%
CCOCCSC1=C(C#N)C(c2cccs2)C(C(C)=O)=C(C)N1 (stereo not drawn)	1%	-15%[46.1 µM]	-1%	-11%	-8%	-6%	0%	4.6%
COc1ccc(C(CNC(=O)c2ccc(-c3ccccc3Cl)o2)N2CCOCC2)cc1 (stereo not drawn)	-4%	?	0%	-12%	nt	nt	?	nt
